LASV entry inh: qHTS for Inhibitors of binding or entry into cells for Lassa Virus; Lassa virus pseudotype entry inhibition, cell reporter; control for the full effect not named in the record; Potency, µM (highest dose often 37.9 µM), inactives show at the highest dose activity change, negative = inhibition, actives largely listed as inhibitors; 1.2% of 300,000 active; AID 540256, 2011; active means well fitted inhibition curve with a large enough effect; inconclusive means small, poorly fitted or top-dose-only effect, or effect the other way; inactive means flat fitted curve, though single readings scatter; tested in HEK293 cells; further: on the % scale 0 is the no-effect control and ±100 the full control effect; nearly all actives have a fitted effect of over 50% in size; luciferase read-out
StopGo reporter: High Throughput Screening for Foot and Mouth Disease Virus Antivirals; Potency, µM (top dose mostly 57.9 µM), for inactives: at the highest dose signal change, negative = less light; 1.2% of 410,000 active; human cells with a luciferase reporter of 2A StopGo recoding; control for the full effect not named in the record; active = well fitted falling curve with a large enough effect; inconclusive = small, poorly fitted or top-dose-only effect; inactive = no such curve, though single readings can be large or run the other way; tested in HEK293T cells; further: on the % scale 0 is the no-effect control and ±100 the full control effect; nearly all actives have a fitted effect of over 45% in size; luciferase light after 4 h
RE007 growth inh: qHTS Assay for Inhibitors of the HIV-1 protein Vpr; S. pombe RE007 Vpr strain, BacTiter-Glo ATP luminescence, 24 h; control for the full effect not named in the record; Potency, µM (highest dose often 92.2 µM), inactives show at the highest dose activity change, negative = less growth; 0.21% of 360,000 active; AID 651644, 2012; active = well fitted falling curve with a large enough effect; inconclusive = small, poorly fitted or top-dose-only effect; inactive = no such curve, though single readings can be large or run the other way;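 further: on the % scale 0 is the no-effect control and ±100 the full control effect; nearly all actives have a fitted effect of over 50% in size; the assay follows cell death caused by Vpr and the record does not say whether a fall means rescue or toxicity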
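Fission yeast RE007 carrying one integrated HIV-1 vpr copy, seeded at OD 0.01 in PMG+AL medium with 23 nL pinned compound. Grown 24 h at 30 degrees; viability read by BacTiter-Glo luminescence after 5 min.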
SARS PLpro yeast: qHTS of Yeast-based Assay for SARS-CoV PLP | S. cerevisiae expressing SARS-CoV PLpro, growth rescue; control for the full effect not named in the record | Potency, µM (highest dose often 32.9 µM), for inactives: top-dose activity, positive = growth rescue | 0.19% of 330,000 active | AID 485353, 2010; further: 0% is about no effect; nearly all actives have a fitted effect of over 55% in size; growth read by luminescence after 48 h
NS1 inh: qHTS Assay for Inhibitors of Influenza NS1 Protein Function; 0.4% of 270,000 active; AID 2326, 2010; S. cerevisiae slowed by influenza A NS1, growth recovery by OD600; Potency, µM (series often up to 46.1 µM), for the others: at the highest dose activity, positive = more growth; further: actives are rising curves; nearly all actives have a fitted effect of over 50% in size
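A cell-based growth assay was used: compounds that relieve NS1-induced slow growth of budding yeast raise OD600. Assay medium was yeast nitrogen base with ammonium sulphate and -URA supplement, pH 6.0, with 2% galactose.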
Cruzain Triton: qHTS Assay for Promiscuous and Specific Inhibitors of Cruzain (with detergent). Cruzipain (Trypanosoma cruzi), P25779. AID 1478, 2009. purified cruzain, Z-FR-AMC fluorescence, 0.01% Triton. 0.43% of 200,000 active. Potency, µM, for the others: max response, negative = inhibition, actives largely listed as inhibitors; active means well fitted curve in the direction sought with a large enough effect; inconclusive means small, poorly fitted or top-dose-only effect, or another doubt; inactive means no such curve, though single readings can be large; an effect the other way counts as inactive or inconclusive;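 further: plate controls were neutral wells for no effect and buffer without enzyme for full effect; nearly all actives have a fitted effect of over 40% in size; top concentration of the series not given in the record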
Target sequence (P25779 123-467 limits assumed): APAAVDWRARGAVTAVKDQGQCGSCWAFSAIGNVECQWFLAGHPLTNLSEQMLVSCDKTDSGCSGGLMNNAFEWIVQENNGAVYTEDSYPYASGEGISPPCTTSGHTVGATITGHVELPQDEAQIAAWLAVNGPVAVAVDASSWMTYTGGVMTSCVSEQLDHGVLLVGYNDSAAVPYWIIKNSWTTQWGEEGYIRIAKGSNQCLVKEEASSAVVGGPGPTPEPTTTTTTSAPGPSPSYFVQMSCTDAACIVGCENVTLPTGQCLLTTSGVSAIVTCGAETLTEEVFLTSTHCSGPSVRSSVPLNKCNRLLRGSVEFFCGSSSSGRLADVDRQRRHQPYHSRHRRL
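Steps: dispense cruzain (1.5 nM final) in acetate buffer pH 5.5 with DTT and 0.01% Triton X-100; pin-transfer compounds; incubate 15 min RT; add Z-FR-AMC (2 uM final); read fluorescence every 30 s, using the 60 s intensity change.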
Marburg entry inh: qHTS for inhibitors of binding or entry into cells for Marburg Virus; Marburg virus pseudotyped entry inhibition, cell reporter; control for the full effect not named in the record; about a third of the inactives were read at about 46 µM; Potency, µM (highest dose often 37.8 µM), for the others: at the highest dose activity change, negative = inhibition, usual class: inhibitors; 1.8% of 300,000 active; active = well fitted inhibition curve with a large enough effect; inconclusive = small, poorly fitted or top-dose-only effect, or effect the other way; inactive = flat fitted curve, though single readings scatter; tested in HEK293 cells; about a fifth of its hits are not listed in these tables; further: on the % scale 0 is the no-effect control and ±100 the full control effect; luciferase read-out
Cruzain noTriton: qHTS Assay for Promiscuous and Specific Inhibitors of Cruzain (without detergent); purified cruzain, Z-FR-AMC fluorescence, no detergent; Potency, µM, inactives show max response, negative = inhibition, actives largely listed as inhibitors; Cruzipain (Trypanosoma cruzi), P25779; 2.3% of 200,000 active; active means well fitted curve in the direction sought with a large enough effect; inconclusive means small, poorly fitted or top-dose-only effect, or another doubt; inactive means no such curve, though single readings can be large; an effect the other way counts as inactive or inconclusive;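 further: plate controls were enzyme without inhibitor for no effect and buffer without enzyme for full effect; nearly all actives have a fitted effect of over 40% in size; top concentration of the series not given in the record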
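Detergent-free condition (0.00005% Triton X-100) in acetate buffer pH 5.5 with DTT. 1.5 nM enzyme and compound were pre-mixed 15 min, then 2 uM Z-FR-AMC substrate added; reaction progress from fluorescence change between first and third reads (60 s).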
* hit, by the source's call; ? = inconclusive; · = not tested or not shown; & = joins results of further samples; [ ] = dose if it differs, or a comment. Unless noted, the call rests on the fitted dose curve; in most records, active means well fitted rising curve with a large enough effect; inconclusive means small, poorly fitted or top-dose-only effect; inactive means no such curve, though single readings can be large or run the other way. Potency means the concentration at half of the fitted maximal effect. Not a hit list; overall some 4.6% were active at least once.

SMILES	LASV entry inh	StopGo reporter	RE007 growth inh	SARS PLpro yeast	NS1 inh	Cruzain Triton	Marburg entry inh	Cruzain noTriton
CCOC(=O)c1cc([N+](=O)[O-])sc1NC(=O)CC	-1%	-5%	-16%	-1%	2%	·	14%	·
CCc1ccc(C(=O)COC(=O)C(CCSC)NC(=O)C23CC4CC(CC(C4)C2)C3)cc1 (stereo not drawn)	-1%	-17%	-17%	-4%	-5%	-4.3%	-1%	8%
Cc1ccccc1NC(=O)CSc1ccc(-c2cccs2)nn1	-12%[46.1 µM]	-5%	·	·	·	-8.5%	·	0%
CCN(CC)S(=O)(=O)c1ccc(NC(=S)Nc2ccccc2)cc1	·	23%	8%	2%	3%	·	·	·
O=c1oc2ccccc2c(O)c1C(c1ccccn1)c1c(O)c2ccccc2oc1=O	·	53%[activator]	-6%	0%	7%	·	·	·
COc1ccc(NC(=O)CN2C(=O)c3cccnc3Sc3ccccc32)cc1OC	-14%[46.1 µM]	4%	·	·	·	-3.2%	·	-6%
O=C1CC(c2ccccc2)C(C(=O)Nc2ccccc2F)N1 (stereo not drawn)	-16%	-17%	5%	-20%	-7%	-0.5%	-17%	3%
O=C(C1CCN(C2CC(=O)N(c3ccc(F)cc3)C2=O)CC1)N1CCOCC1 (stereo not drawn)	13%	-13%	50µM*	-14%	-71%	7.9%	3%&32%	-2%
O=C(NCCc1c[nH]c2ccccc12)/C(=C/c1cccnc1)NC(=O)c1ccco1	·	-16%	3%	0%	6%	·	·	·
Cc1nc2ccccn2c1C(=O)NCc1ccc2c(c1)OCO2	3%	·	5%	1%	-5%	4.0%	-10%	-3%
COC(=O)c1c(NC(=O)C(C)C)sc2c1C(C(=O)OC)CC2 (stereo not drawn)	-3%	-17%	1%	16%	-8%	-2.5%	3%	-1%
COc1ccc(C(=O)Nc2cccc(C(=O)N3CCCC3)c2)cc1	-7%	15%	1%	3%	0%	-2.0%	10%	10%
COc1cc(/C=N/N(C)C)cc(Br)c1O	20%[46.1 µM]	-6%	-14%	0%	-1%	·	-1%[46.1 µM]	·
COc1cccc2c1OCC(C(=O)OCc1cccnc1)=C2	3%	29%	3%	0%	-11%	·	0%[46.1 µM]	·
CCN(c1cccc(C)c1)c1ncnc2nc[nH]c12	·	-22%	-6%	1%	-5%	-4.0%	·	4%
CC1=N/C(=C/c2cccnc2)C(=O)O1	0%	-1%	-7%	-6%	·	·	?	·
Fc1ccc(CNc2ncnc3cc(Cl)ccc23)cc1	·	?	-11%	-6%	-49%	·	·	·
CCCCn1nnc(NC(=O)c2ccc(-c3ccccc3[N+](=O)[O-])o2)n1	·	39%[activator]	12%	-1%	-6%	·	·	·
Cc1ccc(NC(=O)C2C(C(=O)O)C3C=CC2C32CC2)cc1 (stereo not drawn)	12%	21%	-3%	-4%	7%	4.6%	-1%	-4%
Cc1cc(C)cc(OCC(=O)Nc2ccc(-c3nc4ccccc4o3)cc2)c1	26%[46.1 µM]	-9%	·	·	·	-1.6%	·	1%
Cc1nc(NCCc2cnc[nH]2)c2oc3ccccc3c2n1	11%	·	4%	-3%	-3%	2.0%	2%	-7%
CC(NS(=O)(=O)c1ccc(Cl)cc1)C(=O)Nc1ccc2c(c1)OCCO2 (stereo not drawn)	·	14%	-1%	0%	2%	·	-10%[46.1 µM]	·
Cc1nc(SCC(=O)Nc2ccccc2F)[nH]c(=O)c1Cc1ccccc1	-1%[46.1 µM]	7%	·	·	·	-2.5%	12%[46.1 µM]	-9%
CCCOc1ccccc1OCC(=O)Nc1ccc(S(=O)(=O)N2CCCC2)cc1	-11%	0%	13%	-9%	·	·	?	·
COc1ccc(-c2csc(NC(=O)CN3C(=O)NC4(CCCC4)C3=O)n2)cc1	-5%	-22%	-4%	-3%	·	·	-5%	·
Cc1ccc(CNC(=O)C2CCCN(S(=O)(=O)c3ccc(F)cc3)C2)cc1 (stereo not drawn)	2%	0%	6%	0%	-3%	·	?	·
O=C(Cc1ccccc1Cl)NCc1cccnc1	·	-12%	6%	1%	5%	·	·	·
Nc1ccc2c(c1)Cc1cc(N)c(Cl)cc1-2	?	61%[activator]	-6%	·	·	·	-21%	·
COc1ccccc1S(=O)(=O)CC(O)COc1ccc(F)cc1Cl (stereo not drawn)	-3%	-4%	1%	1%	1%	·	14%[46.1 µM]	·
CCOC(=O)c1c[nH]c2c(C)ccc(Cl)c2c1=O	4%	30%[activator]	-6%	0%	2%	·	0%[14.2 µM]	·
COc1ccccc1C(=O)Nc1ccc(C(=O)c2ccccc2)cc1	-26%[46.1 µM]	?	2%	-6%	-2%	·	?	·
CCOc1ccccc1NC(=O)c1nc[nH]c1C(=O)Nc1ccccc1OCC	-12%	13%	-14%	-2%	-6%	3.1%	-11%	-5%
CCc1ccc(N(C(=O)CNC(=O)c2cccs2)C(C(=O)NC(C)(C)C)c2cc(OC)c(OC)c(OC)c2)cc1 (stereo not drawn)	9%	·	48%	4%	-5%	-1.4%	-12%	?
CCCCN1C[C@H](C)[C@@H](CC(=O)NCc2ccccc2)C1=O	·	6%	3%	0%	-10%	·	·	·
COc1ccccc1OCC(=O)Nc1ccc(S(=O)(=O)Nc2cc(C)on2)cc1	·	5%	0%	0%	14%	·	2%[46.1 µM]	·
CCOc1cc(N2CCOCC2)c(OCC)cc1NC(=O)Cc1cccc(OC)c1	?	-11%	-2%	11%	-14%	3.1%	12%[46.1 µM]	?
CC(C)(/C=N/O)/[N+]([O-])=C/c1ccco1	10%	-8%	7%	1%	5%	1.8%	9%	-1%
CC(C)OP(=O)(CCP(=O)(OC(C)C)OC(C)C)OC(C)C	-6%	-2%	7%	-1%	0%	·	-24%	·
CCOC(=O)c1cc2sccc2n1Cc1ccccc1	-3%	-7%	-5%	-8%	-11%	-2.7%	19%	-11%
O=C1/C(=C\c2ccc(-c3ccccc3[N+](=O)[O-])o2)C(c2ccccc2)=NN1c1ccccc1	-7%	-2%	15%	-7%	8%	-7.3%	10%	?
COc1ccc(-c2cc(C(=O)N3CCCC3)no2)cc1OC	18%[46.1 µM]	40%[activator]	7%	-6%	-10%	·	-26%[46.1 µM]	·
O=C(Cn1ccc(NC(=O)OCc2ccccc2)nc1=O)NCc1nc2ccccc2[nH]1	·	-11%	3%	1%	·	·	-2%	·
CC(=O)N(C(C)=O)n1c(/C=C/c2cccc([N+](=O)[O-])c2)nc2ccccc2c1=O	10%	-12%	-4%	0%	5%	·	18%[46.1 µM]	·
Cc1ccc(NC(=O)CN2CCN(C(=O)c3ccco3)CC2)cc1S(=O)(=O)N(C)C	3%	17%	-6%	·	·	·	3%	·
COc1ccc(C2=NN(C(=O)CN3CCCCC3)C(c3ccc(OC)cc3)C2)cc1 (stereo not drawn)	·	8%	5%	0%	-7%	·	·	·
O=C(/C=C/c1ccc(Cl)cc1)N1CCN(c2ccc([N+](=O)[O-])c(N3CCOCC3)c2)CC1	0%	14µM*	8%	-8%	5%	-4.3%	-10%	-5%
Cc1cc(C)cc(C(=O)N2CC(=O)Nc3ccc(C)cc3C2c2ccccc2)c1 (stereo not drawn)	?	20%	·	·	·	-6.1%	·	-2%
COc1cc(C(=O)N/N=C/c2cn(Cc3ccccc3)c3ccccc23)ccc1O	?	?	3%	3%	14%	·	12%	·
COC(=O)C(C)Oc1cc(OC(C)C(=O)OC)c2c(C)c(Cl)c(=O)oc2c1 (stereo not drawn)	6%[46.1 µM]	-7%	1%	-3%	·	·	12%[46.1 µM]	·
CCOc1ccc(-c2nn[nH]n2)cc1	13%	0%	0%	3%	0%	1.8%	-8%[46.1 µM]	-7%
(more compounds)
SMILES	LASV entry inh	StopGo reporter	RE007 growth inh	SARS PLpro yeast	NS1 inh	Cruzain Triton	Marburg entry inh	Cruzain noTriton
Nc1ncnc2c1ncn2[C@@H]1O[C@H](C(=O)NC2CC2)[C@H](O)[C@H]1O	·	·	·	·	-3%	-5.2%	-11%	9%
Cc1cnc2c(C(=O)O)cnn2c1	-18%[46.1 µM]	52%[activator]	0%	-2%	·	·	12%[46.1 µM]	·
CCCOc1ccc(-c2nn(-c3ccccc3)cc2/C=C2\SC(=S)N(C3CCS(=O)(=O)C3)C2=O)cc1 (stereo not drawn)	-4%	·	20%	18%	5%	1.8%	-2%	4µM*
O=C(/C=C/c1cc([N+](=O)[O-])ccc1OC(F)F)Nc1cccc([N+](=O)[O-])c1	·	?	-2%	0%	2%	·	·	·
CC1CC(=O)N(CC(=O)Nc2cccc(F)c2)c2ccccc2S1(=O)=O (stereo not drawn)	·	5%	-2%	4%	1%	·	·	·
COCCn1c(-c2ccccc2F)n[nH]c1=S	17%	?	5%	4%	9%	1.8%	1%	3%
CCc1nc(SCc2ccc(Br)cc2)n[nH]1	16%	84%[activator]	-19%	-5%	-33%	·	?	·
CCN=C(NCC)SC1CC(=O)N(CCc2ccccc2)C1=O (stereo not drawn)	?	-6%	-25%	·	·	·	-7%[46.1 µM]	·
COc1ccccc1CNC(=O)c1cc2cc(C)ccc2n1C	?	20%	·	·	·	-7.4%	?	-5%
Cc1ccccc1NS(=O)(=O)c1cc(C(=O)N2CCCC2)ccc1Cl	1%	-3%	-23%	-3%	-3%	·	-8%	·
COCCNc1ccc(-c2nc(-c3ccncc3)no2)cc1[N+](=O)[O-]	13%[46.1 µM]	37%[activator]	·	·	·	-6.2%	20%[46.1 µM]	18%
COc1cc(Cn2c(-c3nonc3N)nc3ccccc32)ccc1C	?	?	-10%	0%	-2%	-7.4%	?	?

Screening results from PubChem BioAssay.
